# From PubChem BioAssay
# A1 inh = inhibitors of the anti-apoptotic protein A1, read as caspase activation. MEF A1-2A-BIM cells, Caspase-Glo 3/7 luminescence, 3 h; percent of clofoctol response, vehicle zero. caspase activation, % (concentration not given with the values). 330,000 compounds, 0.066% hits. AID 2462;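 active means over half of replicate activation scores above 10%, or exactly half above 10 with the replicate mean above 10; inconclusive means replicate mean below 10 yet half the replicates above 10; inactive means over half of replicates below 10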;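 further: wells of about 30 µL received 50 nL stock; many hits fall short of the cut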
# Calb FLC = affects C. albicans growth with fluconazole; growth inhibition, % (no concentration beside the values); 300,000 compounds, 0.57% hits; C. albicans CaCi-2 (fluconazole-resistant clinical isolate) + fluconazole, Alamar Blue growth, 48 h;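 active means most replicates above 75%; inconclusive means exactly half above 75%; inactive means most below 75%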;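 further: all wells also contain fluconazole at 8 µg/ml as a sub-toxic cotreatment; 0% = median of DMSO wells and 100% = median of geldanamycin control wells; wells of about 8 µL received 7.5 nL stock; the first replicate is given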
# LANA-H2B inh = blocks KSHV LANA binding to histone H2A/H2B | Q9QR71 | cell-free LANA-H2A/H2B peptide, fluorescence polarization | inhibition, % (no concentration beside the values) | 320,000 compounds, 0.6% hits; in the data active means inhibition mostly above about 10%, no sharp cut-off; inactive means mostly below about 6.7%;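 further: stock transfer was 7.5 nL into about 10 µL; 0% = median of vehicle wells and 100% = median of positive control wells; one replicate is shown; the record names a cut of 25% in any replicate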
# ALR H2O2 inh = inhibitors of human sulfhydryl oxidase ALR. purified ALR, DTT oxidation, H2O2 HRP-luminol luminescence. inhibition, % (no concentration beside the values). 290,000 compounds, 3.8% hits. AID 485317;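 active means mean and each replicate at 75% or more; inconclusive means only one of the two met; inactive means neither met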;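 further: stock transfer was 7.5 nL into about 7.5 µL; 0% = neutral wells and 100% = wells with inactivated enzyme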
# Target sequence (P55789 whole entry, looked up): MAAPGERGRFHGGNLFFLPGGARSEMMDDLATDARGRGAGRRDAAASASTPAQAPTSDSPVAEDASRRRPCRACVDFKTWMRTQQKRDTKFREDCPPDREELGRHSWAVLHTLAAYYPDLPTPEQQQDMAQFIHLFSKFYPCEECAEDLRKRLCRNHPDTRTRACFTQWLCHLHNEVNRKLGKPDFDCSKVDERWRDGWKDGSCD
# T cruzi repl = blocks replication of Trypanosoma cruzi. AID 1885. T. cruzi beta-gal in NIH3T3, luminescence, 90 h. inhibition, % (no concentration beside the values). 300,000 compounds, 1.4% hits;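 active means mean inhibition across valid replicates above about 55%, limit read from the data; inconclusive means mean below that limit but half or more replicates reach it; inactive means mean below it, under half of replicates reach it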;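 further: signal also drops with host cell toxicity which is not excluded here; 0% = plate median of DMSO wells and 100% = zero luminescence signal; higher percent means less beta-gal luminescence so fewer parasites; stock transfer was 50 nL into about 50 µL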
# rRNA inh HTS = selective bacterial rRNA inhibition in E. coli. E. coli WT GFP vs humanized-ribosome RFP mutants, fluorescence, 24 h; active compounds read low; DMSO median 0, no signal -100. GFP signal change (wild-type ribosome), % (concentration not given with the values). 350,000 compounds, 1.6% hits. AID 720706;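 active means significant combined selectivity score with lowered wild-type GFP, culture density cut under 30%, mutant RFP and density less affected; inactive means any of these conditions unmet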; further: one replicate is shown; some compounds called inactive have numbers as strong as hits
# B2AR ag = activates human beta-2 adrenergic receptor causing internalization. P07550. Am2.2-beta2AR cells, FAP receptor internalization, flow cytometry; reference of the scale not given here. response, % (concentration not given with the values). 340,000 compounds, 0.43% hits. AID 504454;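 active means response above a set limit, near 3 SD of response in nonfluorescent compounds, cut at about 42% in these data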;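 further: stock transfer was 100 nL into about 11 µL; a reference agonist was the positive control; negative values mostly stem from fluorescent compounds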
# Target sequence (P07550 whole entry, looked up): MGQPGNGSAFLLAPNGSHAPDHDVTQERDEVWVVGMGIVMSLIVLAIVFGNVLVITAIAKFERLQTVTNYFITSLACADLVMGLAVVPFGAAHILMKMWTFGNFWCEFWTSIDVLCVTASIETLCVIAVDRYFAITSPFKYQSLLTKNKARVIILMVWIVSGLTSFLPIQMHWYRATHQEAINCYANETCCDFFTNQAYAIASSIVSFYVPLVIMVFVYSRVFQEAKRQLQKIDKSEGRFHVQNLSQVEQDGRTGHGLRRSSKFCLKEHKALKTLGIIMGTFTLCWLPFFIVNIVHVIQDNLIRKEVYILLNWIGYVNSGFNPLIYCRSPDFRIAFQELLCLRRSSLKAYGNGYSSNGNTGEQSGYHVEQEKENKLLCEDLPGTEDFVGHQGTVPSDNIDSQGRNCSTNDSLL
# Beta apoptosis = blocks beta cell apoptosis; 300,000 compounds, 0.8% hits; protection from apoptosis, % (no concentration beside the values); INS-1E cytokine-induced death, ATP luminescence, 48 h; percent of positive-control rescue, neutral wells zero;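 active means all replicates at 75% or more, or half of them and the mean; inconclusive means half reach 75% but not the mean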;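 further: 0% = cytokine-treated negative control wells and 100% = positive control rescue; higher means more ATP so stronger rescue from cytokine killing; wells of about 40 µL received 100 nL stock; the first replicate is given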
# rRNA inh HTS OD600 = recorded beside rRNA inh HTS, whose call it bears; OD600 change, %; measured here: OD600 growth;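 optical density of the mix in the first replicate; 0 = DMSO median and -100 = no signal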
# rRNA inh HTS RFP = further read-out of rRNA inh HTS, marked with its call; RFP signal change, %; measured here: RFP humanized mutant strains;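 first replicate; 0 = DMSO median and -100 = no signal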
# Starred values were filed as active, the others as inactive; u = inconclusive; x = not tested or not shown.
SMILES,A1 inh,Calb FLC,LANA-H2B inh,ALR H2O2 inh,T cruzi repl,rRNA inh HTS,rRNA inh HTS OD600,rRNA inh HTS RFP,B2AR ag,Beta apoptosis
CCc1cc(-c2n[nH]c(=S)n2-c2cccc(C)c2)cs1,0.4,-4,-4.8,85*,5,x,x,x,-1,0
NS(=O)(=O)c1ccc(CCNC(=O)Cn2c(=O)c3cccn3c3cccnc32)cc1,0.9,17,12,-1,-11,-1,-3,-0.5,-5,-11
CC(=O)Nc1cccc(-c2cnc(N)c(C(=O)c3cccnc3)n2)c1,-0.9,x,-7.4,-7,x,x,x,x,1,-38
CCOC(=O)C1=C(C)Nc2ncnn2C1c1ccc2c(c1)OCO2 (stereo not drawn),0.2,22,-6.9,-4,-20,-6,-1,-1.2,-11,-4
Cc1cc(NC(=O)c2cc([N+](=O)[O-])cc([N+](=O)[O-])c2)no1,-0.2,21,3.9,-25,55*,-22,-32,-4.6,-7,20
COCCn1c(SCC(=O)N2CCCCC2)nc2ccccc2c1=O,-0.1,12,1.8,3,-10,-7,-10,-5.9,2,1
Cc1ccc(C2(C)NC(=O)N(CC(=O)NNC(=O)c3ccccc3)C2=O)cc1 (stereo not drawn),0.2,x,-1.2,x,x,6,17,-2.6,-1,-1
CC1CCN(S(=O)(=O)c2cc(Cl)ccc2Br)CC1,-0.9,-17,2.6,-4,-6,x,x,x,-2,-6
C/C(=N/NC(=O)c1ccc2nc[nH]c2c1)c1cccs1,-0.3,-14,-3.9,x,-17,x,x,x,-14,-7
O=C(CCN1C(=O)c2ccccc2C1=O)CN1CCOCC1,-0.3,1,-0.9,-16,-7,7,12,-0.4,-2,2
CC(/C=C/c1ccc2c(c1)OCO2)=N\NC(=O)c1cccc([N+](=O)[O-])c1,0.0,-15,-2.5,1,2,22,3,-0.1,11,x
O=C(O)C1CCC(=O)N(C2CCCCC2)C1c1ccccc1 (stereo not drawn),0.1,10,-3.4,-7,-5,x,x,x,-4,0
CCOc1ccc(S(=O)(=O)N(C)c2ccc(OCC(=O)NC3=NCCS3)cc2)cc1,-0.7,3,3.8,-1,-6,13,6,8.1,6,-11
Cc1ccc(-c2csc3ncnc(Cl)c23)cc1,0.0,10,3.3,-1,-1,2,3,-3.5,1,-1
O=C(NC(=S)Nc1cc(-c2nc3ccccc3[nH]2)ccc1Cl)c1ccc2c(c1)OCO2,-3.6,2,0.9,-2,42,x,x,x,19,89*
Cc1nc2oc3ccc(F)cc3c(=O)c2cc1C(=O)NC(C)(C)C,0.1,-3,-3.4,4,-1,4,9,3.3,12,-1
O=C(NC1CCSC1=O)C1CCCCC1 (stereo not drawn),0.6,-6,1.3,-5,-20,16,0,-1.3,-4,-1
CC(=O)Nc1ccc(S(=O)(=O)N2CCSC2c2ccco2)cc1 (stereo not drawn),0.6,3,3.1,-1,-18,-8,-8,0.4,-1,0
O=C1CC(N2CCOCC2)=NN1c1ccc([N+](=O)[O-])cc1,-2.3,-3,2.2,-128,-19,3,8,-0.9,8,-6
CC1(C(=O)Nc2ccc3c(c2)OCO3)CC1(Cl)Cl (stereo not drawn),0.1,-8,-3.6,0,5,11,15,-1.4,2,-1
COc1cc(C(=O)NCC2CCCCC2)cc(OC)c1OC,0.6,1,-2.5,x,2,0,4,-2.1,1,5
Cc1sc2ncnc(N3CCC(C(=O)Nc4ccc(S(N)(=O)=O)cc4)CC3)c2c1C,0.6,x,0.0,-2,x,-10,-33,-1.4,8,-8
CCOc1ccc(S(=O)(=O)N2CC(=O)Nc3ccccc32)cc1C#N,-0.1,6,0.0,2,9,-3,-1,-2.9,2,x
N#Cc1c(F)cccc1N1CCOCC1,-0.6,-3,9.6,x,-10,x,x,x,-3,-7
O=C(O)CCC(=O)Nc1ccccc1C(=O)Nc1ccccc1,0.2,11,-0.5,-11,-9,x,x,x,3,6

# (further entries)
SMILES,A1 inh,Calb FLC,LANA-H2B inh,ALR H2O2 inh,T cruzi repl,rRNA inh HTS,rRNA inh HTS OD600,rRNA inh HTS RFP,B2AR ag,Beta apoptosis
O=C(CC1Sc2ccccc2NC1=O)OC(C(=O)NCCc1ccccc1)c1cccnc1 (stereo not drawn),0.5,10,5.5,-32,0,x,x,x,-7,-5
CCCc1cc(C(=O)Nc2cc(OC)c(Cl)cc2OC)no1,-0.4,10,-0.1,x,2,4,6,0.8,-3,-1
CCn1c(SCC(=O)NC(C)C(C)C)nc2cc(S(=O)(=O)N3CCOCC3)ccc21 (stereo not drawn),1.2,0,0.7,0,-2,-1,6,-1.3,2,-2
O=C(CSc1nc2ccsc2c(=O)n1Cc1ccccc1)NCc1ccco1,0.0,-19,1.3,3,21,x,x,x,-10,11
CCCCn1nnc(NC(=O)CC23CC4CC(CC(C4)C2)C3)n1,0.0,-12,-2.1,-8,-3,x,x,x,-11,6
COc1cc2c(=O)n(Cc3ccccc3)c(=O)n(CC(=O)NCC3CCCO3)c2cc1OC (stereo not drawn),-0.3,14,-3.9,-7,19,x,x,x,-7,-1
Clc1ccc(CSc2nnc([C@@H]3CCCN3)o2)cc1,0.5,3,-3.3,-3,2,x,x,x,-9,2
COc1ccc(C(C#N)N2CCC(c3ccccc3)=N2)cc1OC (stereo not drawn),1.1,-8,x,x,-1,2,-3,0.0,-4,-3
CC(C)c1ccc(/C=N/NC(=O)c2nnn(-c3nonc3N)c2CN(C)C2CCCCC2)cc1,0.0,-1,-7.6,-2,3,8,13,1.4,3,-5
COC(=O)C1=C[C@@H](C(=O)OC)[C@@H]2C3=C(C(=O)[C@]2(C)NC(=O)c2ccccc2)[C@H](C)n2c(=O)n(-c4ccccc4)c(=O)n2[C@@H]3C1,1.0,0,-4.3,-4,1,3,9,-0.6,-2,-1
COc1ccc(NC(=O)c2c(-c3ccccc3Cl)noc2C)c(OC)c1,-0.6,14,0.6,-5,7,x,x,x,3,x
O=C(Nc1ccccc1)Nc1nnc(SCc2ccc(Cl)cc2)s1,0.0,-12,4.0,-28,3,-3,-3,-3.1,0,3
CCOC1=NS(=O)(=O)c2ccccc21,0.3,28,-4.1,-2,-11,20,18,-1.2,-2,x
CCOc1ccc(/C=N/NC(=O)COc2ccccc2-c2ccccc2)cc1,0.4,-21,-1.3,-3,19,x,x,x,-7,3
Cc1cc2c(c(=O)o1)C(Cc1ccccc1)C(C#N)=C(N)O2 (stereo not drawn),1.5,9,-3.5,33,-8,x,x,x,6,-4
CN(C)S(=O)(=O)c1ccc(Cl)c(NC(=O)CN2CCCC2)c1,-0.3,-1,2.1,0,7,5,8,-0.9,-2,-6
CCOC(=O)N1CCN(C(=O)c2cc3c(=O)n(C)c4ccccc4c3n2C)CC1,-0.5,-6,-4.5,-2,7,-6,-4,-2.7,4,3
CCOc1ccc(N2C(=O)Nc3ccccc3C2(O)C(=O)NCc2ccc3c(c2)OCO3)cc1 (stereo not drawn),0.8,-5,-0.5,-11,1,x,x,x,0,-4
O=C(Cn1cc(C(=O)c2cccs2)c2ccccc21)NCc1ccc2c(c1)OCO2,-0.2,-1,-11,-2,2,-5,-11,1.9,-28,0
CCN(Cc1ccccc1)S(=O)(=O)c1nc2nc(C)c(C)c(C)n2n1,1.3,0,1.0,-18,1,x,x,x,-1,-1
CCC(C(=O)NCc1ccc(C)o1)n1nc(C)c2c(C)n(-c3ccccc3)nc2c1=O (stereo not drawn),-0.3,-5,4.1,13,-33,4,-1,-0.9,-2,-2
COc1cccc(NC(=O)CN2C(=O)NC3(CCCC3)C2=O)c1,0.4,1,4.6,-7,-6,8,5,0.3,2,-7
COc1ccccc1CNC(=O)CSC(=S)N1CCCC1,-0.6,-1,0.3,3,-3,1,3,1.0,-9,x
COc1cccc(-c2c(-c3cc(OC)cc(OC)c3)n(C)c3ccc(-c4ccc5cc[nH]c5c4)cc23)c1,0.5,x,-0.2,-1,x,10,21,4.2,11,-3
O=C(CCNC(=O)c1ccc(Br)cc1)NCc1ccccn1,-1.0,0,-4.8,1,-3,11,11,2.0,-1,-4

# Next part
SMILES,A1 inh,Calb FLC,LANA-H2B inh,ALR H2O2 inh,T cruzi repl,rRNA inh HTS,rRNA inh HTS OD600,rRNA inh HTS RFP,B2AR ag,Beta apoptosis
Cc1ccc(S(=O)(=O)N2CCOCC2)cc1C(=O)NC1CCCC1,0.6,1,0.6,3,-4,7,12,-1.4,-2,x
CCN(CC)CCN1c2ccccc2Sc2ccc3ccccc3c21,0.0,19,3.6,98*,26,-23,-62,25,28,106*
COc1ccccc1-c1cc(C(F)(F)F)nc(S(=O)(=O)CCCC(=O)N2CCCCC2C)n1 (stereo not drawn),0.3,-2,3.7,98*,-43,x,x,x,35,-36
Oc1cc2ccccc2cc1-c1n[nH]c(=S)o1,-5.9,4,-2.3,97*,-12,x,x,x,14,-4
CC(=O)/C(=N\Nc1ccccc1Cl)Sc1cccc2cccnc12,2.0,5,2.9,1,36,x,x,x,-5,14
COc1cc(C(c2c(C)[nH][nH]c2=O)c2c(C)[nH][nH]c2=O)cc(Br)c1OC,0.1,-6,4.1,38,-1,8,3,-2.3,2,x
CC(C)NC(=O)NNC(=O)c1nn(-c2ccc(F)cc2)ccc1=O,0.4,-15,2.7,10,-20,1,6,-2.0,4,-2
CCn1c(Cn2nnc(-c3ccccc3)n2)nnc1SCc1ccc(Cl)c(Cl)c1,-0.2,15,-13,-5,36,x,x,x,-1,3
COc1ccc(C(N)=S)c(OC)c1,0.7,u,11,-2,2,17,12,-2.2,-13,0
COC(=O)c1c(-c2ccc(F)cc2)csc1NC(=O)c1ccco1,0.4,1,-1.2,-11,6,x,x,x,0,4
COc1ccc(C2c3c(ccc4ccccc34)Oc3ncn4nc(-c5ccco5)nc4c32)cc1OC (stereo not drawn),-0.5,7,-6.7,-5,-22,x,x,x,1,-3
Cc1ccc(OCCSc2nnc(NC(=O)c3ccco3)s2)cc1,0.7,6,-5.6,-6,-13,x,x,x,-6,-11
CCOC(=O)C(=CNc1cc(Cl)c(-c2ccco2)c(Cl)c1)C(=O)OCC,0.0,-1,6.9,-2,11,4,2,-0.3,1,3
COc1ccccc1/C=C/c1onc(C)c1S(=O)(=O)N1CCC(C(=O)NC2CCCCCC2)CC1,1.4,-4,1.1,-2,-3,9,-5,0.0,-1,17
Cc1ccc(N(C(=O)c2csnn2)C(C(=O)NC(C)(C)C)c2ccncc2)cc1 (stereo not drawn),0.1,7,-1.5,-4,-21,1,-1,-2.2,3,-1
CCc1ccc(/C=N/NC(=O)c2c[nH]c3ccccc23)s1,-1.1,16,5.1,0,14,x,x,x,31,11
COc1ccc(C(=O)N/N=C/c2ccc(OC)c(CN3CCN(c4ccc(F)cc4)CC3)c2)cc1,1.9,-8,-3.3,0,-4,15,9,5.1,0,2
O=C(COC(=O)CCOc1ccccc1)Nc1ccc(Cl)cn1,-0.7,10,-3.3,3,-11,x,x,x,1,-5

# A portion of the library; count on the stated rates, not on these rows.
